# Bioassay records deposited in PubChem by several laboratories.
# Mtb hypoxia rep = PubChem AID 1159583 | M. tuberculosis hypoxia-regulated fluorescent reporter, fluorescence | actives 0.1% (n = 300,000) | fluorescence inhibition, % (test concentration not listed);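 active = 35 to 45% if threefold the growth effect, above 45% if 1.5-fold the growth effect; inactive = the rest, general growth blockers included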;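 note: wells of about 50 µL received 100 nL stock; 0% = vehicle wells and 100% = reference inhibitor wells; whole bacteria with a GFP reporter of the hypoxia response; strong numbers were not always called active; many hits fall short of the cut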
# PrP 5UTR inh = inhibition of PrP 5' UTR reporter expression. cell-based PrP 5' UTR mRNA reporter, plate reader. inhibition, % (no concentration beside the values). actives 0.35% (n = 340,000). AID 488862, 2010;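 active = every replicate at 50% or more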;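 note: 0 = median of the neutral control wells; tested in H4 reporter cells; numbers are from one replicate; inactives centre near -14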
# ugtP null kill = growth inhibition of ugtP-null S. aureus, primary screen, RN4220 ugtP deletion, OD600; 16 h; some inactives read as strong as hits; actives 0.54% (n = 330,000); growth inhibition, % (no concentration beside the values);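 active = z-score under -3 and OD600 up to 0.15 on both plates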;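 note: plate controls were untreated wells for no effect and antibiotic for full effect; wells of about 80 µL received 100 nL stock; the first replicate is given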
# RN4220 kill = growth inhibition of S. aureus RN4220, primary screen, OD600. 16 h. inhibition, % (no concentration beside the values). actives 0.33% (n = 330,000);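 active = z-score of -3 or lower and OD600 up to 0.18 on both plates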;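 note: plate controls were untreated cells for no effect and reference antibiotic for full effect; stock transfer was 100 nL into about 80 µL; one replicate is shown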
# BJeLR viability = MLPCN primary cell-based screen for lethality selective to Ras in HRASV12 cells; inhibition, % (concentration not given with the values); BJeLR (HRASV12) viability, CellTiter-Glo ATP luminescence, 48 h; reference of the scale not given here; AID 1554, 2009; actives 0.17% (n = 300,000);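 active = replicate mean above 50%; inconclusive = above 50% but judged a plate artefact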;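 note: 50 nL library stock added to about 25 µL; numbers are from one replicate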
# Bead autofluor = flagged as autofluorescent in microsphere protease counterscreen; compound autofluorescence counterscreen, microsphere flow cytometry; hits give high values; fluorescence intensity (no concentration beside the values); actives 3.1% (n = 360,000);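 active = at least 3 SD above the mean of all compounds, about 16000 in these data; inconclusive = too few beads counted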;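 note: 100 nL of 1 mM stock went into each well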
# Mtb hypoxia rep growth = recorded beside Mtb hypoxia rep, whose call it bears; growth inhibition, %; measured here: M. tuberculosis growth (absorbance);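 0% = vehicle and 100% = reference antibiotic; read after six days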
# Numbers without * were called inactive; ? = inconclusive; · = not tested or not shown.
SMILES,Mtb hypoxia rep,Mtb hypoxia rep growth,PrP 5UTR inh,ugtP null kill,RN4220 kill,BJeLR viability,Bead autofluor
CC(=O)C[C@H](O)CC(=O)[C@@H]1OC(=O)[C@@H](C)C/C=C\Cc2ccccc21,-7,-5,-16,6,4.7,·,4039
O=C(Nc1cccc2cccnc12)c1ccc(Br)cc1Br,3,0,6,-2,2.2,-5,3326
O=C(O)C1CCCCC1C(=O)Nc1cc(C(F)(F)F)ccc1Cl (configuration not stated),5,-2,-23,-1,5.1,7,4316
COc1ccc(C(=O)N2CCNC(=O)C2CC(=O)Nc2ccc(C)cc2)cc1 (configuration not stated),-6,-3,-8,6,2.6,-1,4010
CC(C)CCOc1cccc(OCC(=O)N(C)C2CCS(=O)(=O)C2)c1 (configuration not stated),-2,3,-1,-8,2.3,0,16885*
O=C(O)C1CCCCC1C(=O)NCCc1c[nH]c2ccccc12 (configuration not stated),·,·,-1,5,-0.1,0,2587
COc1cccc(CN2CC(C(=O)NCCCn3cccn3)CCC2=O)c1 (configuration not stated),·,·,-7,·,·,-8,?
Cc1ccc(S(=O)(=O)N/N=c2\sc3ccccc3n2C)cc1,·,·,-30,·,·,-7,2811
COc1ccc(C(=O)Nc2cnc3ccccn3c2=O)cc1,-4,-11,-69,-1,2.5,13,3404
CC1CCCCC1NS(=O)(=O)c1ccc2c(c1)CC(=O)N2C (configuration not stated),9,6,-16,-1,1.0,9,5914
Cc1c(C(=O)N2CCCc3ccccc32)oc2ccccc12,5,5,-27,4,2.8,-3,5028
O=S(=O)(c1cnc(Cl)c(Cl)c1)N1CCc2ccccc21,9,12,-17,11,4.1,4,3631
CCc1ccc(S(=O)(=O)NN=C(C)c2ccncc2)cc1,-7,-6,·,12,2.5,·,·
O=C(NCc1ccccn1)c1cc2c(ccc3ccccc32)oc1=O,-9,10,-4,-1,2.3,5,3477
O=c1cc(-c2ccccc2)nc2nc(CCc3ccccc3)[nH]n12,·,·,8,-2,4.5,9,2771
CCOC(=O)c1c(O)c2ccccc2n(C)c1=O,2,2,-53,11,6.4,0,4502
O=C(COC(=O)c1ccccc1F)Nc1ccc(S(=O)(=O)N2CCOCC2)cc1,2,9,-11,0,0.6,·,3640
COc1ccc(C(=O)NCC(C)NC(=O)c2ccc(OC)cc2)cc1 (configuration not stated),-6,-3,-11,4,3.9,-5,5212
O=C1NC2(CCCCO2)CO1 (configuration not stated),·,·,-21,·,·,-3,2834
CCOc1cccc(-c2c(C(=O)NN=Cc3c(F)cccc3Cl)nnn2-c2nonc2N)c1,13,4,·,13,16,·,·
CCCCC(=O)Nc1c(-c2ccc(OC)c(OC)c2)c(=O)c2ccccc2n1C,-2,1,-8,5,2.2,7,2890
CC12CN3CC(C)(CN(C1)C3c1c[nH]c3ccccc13)C2=O (configuration not stated),15,7,-6,6,3.6,-5,2496
COc1cc(C(=O)NCC(=O)OCC(=O)N2CCc3ccccc32)cc(OC)c1OC,-13,2,14,2,8.2,-10,3131
COC(=O)C1=C(C)NC(C)=C(C(=O)OC)C1C(=O)OCC(=O)c1ccc(Br)cc1,-2,-2,4,-4,0.7,·,?
CCN(CCNS(=O)(=O)c1ccc2c(c1)oc(=O)n2C)c1ccccc1,-4,2,-15,4,15,-11,4197
# Carrying on:
SMILES,Mtb hypoxia rep,Mtb hypoxia rep growth,PrP 5UTR inh,ugtP null kill,RN4220 kill,BJeLR viability,Bead autofluor
O=C(CCN1CCOCC1)NNC(=O)Nc1cccc(Cl)c1,10,13,-18,5,0.2,0,6723
Clc1ccc(-c2ccc(C=Nc3ccc(N4CCOCC4)cc3)o2)cc1,11,0,-6,-5,1.0,-10,2526
O=c1[nH]c(=S)n(-c2ccc(Br)cc2)c(O)c1C=Nc1ccc(N2CCOCC2)cc1,1,-10,-31,-3,-1.0,13,9284
NC(=O)CC(NC(=O)c1ccc(Br)cc1)c1ccc(NC2CCCCC2)c([N+](=O)[O-])c1 (configuration not stated),13,4,-33,-1,-5.4,-3,3740
Cc1occc1C(=O)NN1C(=O)C2C3CCC(O3)C2C1=O (configuration not stated),4,-4,7,4,5.0,-4,2019
CCn1c(CC(=O)Nc2ccccc2C)nnc1SCC(=O)NC1=NCCS1,-8,-3,-4,1,0.2,2,3759
COc1cc(C(=O)NCc2cc(C)nc3ccccc23)cc(OC)c1OC,2,-1,-7,-5,-4.4,11,4454
O=C(Nc1ccc(O)c(-c2nc3ccccc3s2)c1)c1cccs1,0,6,-17,2,5.0,1,2576
CC(=O)c1sc2nc(-c3ccc(C)cc3)c3c(c2c1N)CCCC3,8,4,-11,-15,3.7,10,10686
N#C/C(=C\c1cn[nH]c1-c1ccccc1)C(=O)NC1CCCCCC1,8,1,·,-1,3.9,6,12468
CC(=O)Nc1ccc(S(=O)(=O)N2CCN=C2SCc2cccc(C)c2)cc1,5,7,-16,-9,3.0,3,5690
O=C(NNS(=O)(=O)c1ccc(Br)cc1)c1ccncc1,4,1,-16,10,2.1,-3,20766*
Cc1ccc(C=NN2CCN(C3c4ccccc4-c4ccccc43)CC2)o1,14,10,·,1,-7.3,·,·
CC(C)[C@H](NC(=O)N1CCn2c1nc1ccccc12)C(=O)NCC1CCCO1 (some centres not stated),8,2,-10,9,3.6,-9,4760
N#Cc1c(NC(=O)c2cccc(S(=O)(=O)Nc3ccc(C(=O)O)cc3)c2)sc2c1CCCC2,9,6,-7,13,0.3,14,4789
Cc1cc(=O)[nH]c(NN=Cc2ccc(C)o2)n1,10,12,·,4,-1.5,·,·
O=C(CSc1nc2ccccc2c(=O)n1-c1ccc(F)cc1)Nc1ccc(N2CCOCC2)cc1,-8,-8,-10,14,-1.6,3,2157
CCN(C[C@H]1N[C@@](Cc2ccccc2)(C(=O)OC)[C@H]2C(=O)N(C)C(=O)[C@@H]12)C(=O)Nc1ccc(C)cc1,-8,1,-8,12,7.1,·,2880
CCCNc1cc(C)c(C#N)c2nc3ccccc3n12,17,4,0,1,-15,·,3286
CC(=O)Nc1ccc(S(=O)(=O)NCCC(=O)Nc2cc(C)ccn2)cc1,-7,7,3,1,-0.2,-5,5857
CCCCNC(=O)NNC(=O)c1cc(C)on1,15,4,-16,2,6.4,4,4786
CCC(C)NC(=O)CON=Cc1ccccc1OC(F)F (configuration not stated),-8,0,·,5,5.7,·,·
CCN(CC)CCCC1(CN)OCCc2ccccc21 (configuration not stated),15,12,-8,-6,-11,-11,3115
O=C(O)/C=C/C(=O)Nc1ccc(Cl)cc1C(=O)c1ccccc1,·,·,0,·,·,-5,3662
COc1ccc2c(CC(=O)OCC(=O)Nc3ccc(C)cc3)coc2c1,3,5,-20,4,0.7,·,7901

# Sorted by number of heavy atoms (smallest number first): some entries from above.
SMILES,Mtb hypoxia rep,Mtb hypoxia rep growth,PrP 5UTR inh,ugtP null kill,RN4220 kill,BJeLR viability,Bead autofluor
Cc1cc(=O)[nH]c(NN=Cc2ccc(C)o2)n1,10,12,·,4,-1.5,·,·
CCCNc1cc(C)c(C#N)c2nc3ccccc3n12,17,4,0,1,-15,·,3286
CCC(C)NC(=O)CON=Cc1ccccc1OC(F)F (configuration not stated),-8,0,·,5,5.7,·,·
O=C(O)/C=C/C(=O)Nc1ccc(Cl)cc1C(=O)c1ccccc1,·,·,0,·,·,-5,3662
O=C(Nc1ccc(O)c(-c2nc3ccccc3s2)c1)c1cccs1,0,6,-17,2,5.0,1,2576
COc1ccc2c(CC(=O)OCC(=O)Nc3ccc(C)cc3)coc2c1,3,5,-20,4,0.7,·,7901
COc1cc(C(=O)NCc2cc(C)nc3ccccc23)cc(OC)c1OC,2,-1,-7,-5,-4.4,11,4454
CCn1c(CC(=O)Nc2ccccc2C)nnc1SCC(=O)NC1=NCCS1,-8,-3,-4,1,0.2,2,3759
O=c1[nH]c(=S)n(-c2ccc(Br)cc2)c(O)c1C=Nc1ccc(N2CCOCC2)cc1,1,-10,-31,-3,-1.0,13,9284
NC(=O)CC(NC(=O)c1ccc(Br)cc1)c1ccc(NC2CCCCC2)c([N+](=O)[O-])c1 (configuration not stated),13,4,-33,-1,-5.4,-3,3740
N#Cc1c(NC(=O)c2cccc(S(=O)(=O)Nc3ccc(C(=O)O)cc3)c2)sc2c1CCCC2,9,6,-7,13,0.3,14,4789
O=C(CSc1nc2ccccc2c(=O)n1-c1ccc(F)cc1)Nc1ccc(N2CCOCC2)cc1,-8,-8,-10,14,-1.6,3,2157
CCN(C[C@H]1N[C@@](Cc2ccccc2)(C(=O)OC)[C@H]2C(=O)N(C)C(=O)[C@@H]12)C(=O)Nc1ccc(C)cc1,-8,1,-8,12,7.1,·,2880

# Following part.
SMILES,Mtb hypoxia rep,Mtb hypoxia rep growth,PrP 5UTR inh,ugtP null kill,RN4220 kill,BJeLR viability,Bead autofluor
Cc1nnc(SCC(=O)Nc2cccc(Br)c2)s1,6,-4,-20,-2,1.3,·,9036
O=[N+]([O-])c1ccccc1OCCCn1cnc2ccccc21,8,-2,-106,3,-2.6,-12,4114
CNC(=O)NNC(=O)c1csc(Cc2c(Cl)sc3ccc(Cl)cc23)n1,0,1,-19,17,-0.3,-6,6293
Clc1ncc2[nH]cnc2n1,-10,-5,-36,-1,-1.6,5,4272
Cc1ccnc(NS(=O)(=O)c2ccc(NC(=O)C=Cc3cccs3)cc2)n1,10,12,·,-5,-3.7,·,·
Cc1cc2ncn(-c3ncnc4sc5c(c34)CCCC5)c2cc1C,·,·,·,-12,-6.2,1,·
CCOC(=O)c1c(N2C(=O)Nc3ccccc3N2O)sc2c1CCCCC2,-8,-3,-8,-7,3.3,-8,2154
CC(C(=O)Nc1ncn[nH]1)N1C(=O)c2ccccc2C1=O (configuration not stated),17,4,-49,-2,-8.8,0,2874
O=C(CCc1ccccc1)NNC(=O)Cc1ccc(Cl)cc1,3,3,-23,-2,2.2,10,4348
C/C(=N\OC(=O)NC(C)C)c1sc(-c2ccc(Cl)cc2)nc1C,·,·,-49,·,·,0,2475
C=CCOc1cccc(/C=N/NC(=O)C(=O)NCc2ccco2)c1,·,·,-26,·,·,-2,2092
Cn1c(CCNC(=O)c2ccco2)nc2cc(NC(=O)c3ccccc3Cl)ccc21,-5,7,-22,-4,-4.1,2,5721
Cc1ccc(C(=O)COc2ccccc2N2C(=O)c3ccccc3C2=O)cc1,1,1,-75,9,0.6,-4,2816
COc1cc(C2/C(=C(\O)c3ccc4c(c3)CC(C)O4)C(=O)C(=O)N2Cc2ccco2)ccc1O (configuration not stated),0,0,-84,-2,14,6,2113
Oc1ccccc1C=Nn1c2ccccc2c2ccccc21,10,6,·,16,-6.7,·,·
CCc1ccc(N2C(=O)CC(=O)NC2=O)cc1,14,2,-11,8,8.1,6,3463
COc1ccc(CCNC(=O)CN2C(=O)NC(c3ccccc3)(c3ccccc3)C2=O)cc1,-5,-2,-20,1,0.3,·,2959
CCC1C(=O)N=C(SCC(=O)Nc2ccc(Br)cn2)NC1=O (configuration not stated),9,14,-25,8,2.1,9,2291
O=C(CCCl)Nc1ccc(S(=O)(=O)NCc2ccco2)cc1,8,8,-3,-3,5.9,-11,6211
CSc1ccc(/C=N\NC(=O)CC(=O)NC(C)C)cc1,·,·,-25,·,·,-8,3970
CCC(=O)c1ccc(OCC(=O)OCC(=O)N2CCc3ccccc32)cc1,-2,5,-49,4,5.8,1,5887
O=S(=O)(c1ccc2nc(Nc3ccccc3)ccc2c1)N1CCCCC1,-1,-7,-11,-15,3.0,1,4490
Cc1cccc(CNCCc2c[nH]c3ccccc23)c1,·,·,-18,·,·,5,3108
COn1c(SCC(=O)N(C)C)nc2ccccc2c1=O,7,4,-30,2,4.1,-8,10957
Cc1ccc(NC(=O)Cc2c(C(=O)O)n(C)c3ccccc23)cc1F,7,-7,-11,-3,0.2,5,4767
O=C1NCC(COCc2ccccc2)O1 (configuration not stated),·,·,-5,-2,0.2,-2,4757
COCCNC(=O)c1ccc(Cn2c(SCC(=O)NCC3CCCO3)nc3ccc(Br)cc3c2=O)cc1 (configuration not stated),-2,13,-2,2,0.7,-1,5480
CC(=O)c1ccc(N2CCN(C(=O)C3(S(=O)(=O)c4ccc(Cl)cc4)CC3)CC2)cc1,3,6,-6,3,4.0,-1,19219*
